Screening results: PubChem BioAssay, several laboratories
Yeast UUG start – modulators of yeast start codon fidelity, primary screen, whole organism, S. cerevisiae, single point, plate reader; S. cerevisiae UUG-firefly luciferase reporter, luminescence/redox ratio; activity score, % at 18.7 µM; 350,000 compounds, 0.13% hits; AID 602363, 2012;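 active = replicate mean at a twofold rise or more, about +100% in these data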;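 note: firefly luciferase made from a UUG start codon reports start codon fidelity; reporter light over untreated wells divided by growth signal over untreated wells; some hits fall short of that in this replicate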
MT1-MMP act inh – blockers of MT1-MMP proenzyme processing, primary screen, HT1080 RFP-PRO-GFP cells, GFP/RFP fluorescence; GFP/RFP ratio fluorescence, overnight; percent of plate control window, DMSO zero; GFP/RFP ratio change, % at 20 µM; 360,000 compounds, 0.061% hits;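 active = GFP/RFP ratio change of at least 30% with cell ATP level not reduced by more than half and red fluorescence within 50% of control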; note: strong numbers were not always called active
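Assay system: RFP-PRO-GFP reporter HT1080 cells; read-out basis: GFP/RFP fluorescence ratio; benchmarks: DMSO wells and RFP-L50D-GFP cells; doses: 20 µM single dose, 1% DMSO; schedule: overnight cell settling, then overnight compound exposure, 37 °C, 5% CO2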
PABP polyA inh – PABP poly(A) RNA binding inhibitors, primary screen, biochemical, fluorescence polarization, uHTS | Polyadenylate-binding protein 1 (Homo sapiens), P11940 | inhibition, % at 35 µM | 290,000 compounds, 1% hits;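 active = 50% or more with normal probe brightness, or confirmed in later tests; about a fifth of its hits are not listed in these tables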;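 note: calls also rest on retests at 20 µM and on dose response follow-up; controls were probe without protein and protein plus probe with vehicle; some compounds called inactive have numbers as strong as hits; many hits fall short of the cut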
Target sequence (P11940 whole entry, looked up): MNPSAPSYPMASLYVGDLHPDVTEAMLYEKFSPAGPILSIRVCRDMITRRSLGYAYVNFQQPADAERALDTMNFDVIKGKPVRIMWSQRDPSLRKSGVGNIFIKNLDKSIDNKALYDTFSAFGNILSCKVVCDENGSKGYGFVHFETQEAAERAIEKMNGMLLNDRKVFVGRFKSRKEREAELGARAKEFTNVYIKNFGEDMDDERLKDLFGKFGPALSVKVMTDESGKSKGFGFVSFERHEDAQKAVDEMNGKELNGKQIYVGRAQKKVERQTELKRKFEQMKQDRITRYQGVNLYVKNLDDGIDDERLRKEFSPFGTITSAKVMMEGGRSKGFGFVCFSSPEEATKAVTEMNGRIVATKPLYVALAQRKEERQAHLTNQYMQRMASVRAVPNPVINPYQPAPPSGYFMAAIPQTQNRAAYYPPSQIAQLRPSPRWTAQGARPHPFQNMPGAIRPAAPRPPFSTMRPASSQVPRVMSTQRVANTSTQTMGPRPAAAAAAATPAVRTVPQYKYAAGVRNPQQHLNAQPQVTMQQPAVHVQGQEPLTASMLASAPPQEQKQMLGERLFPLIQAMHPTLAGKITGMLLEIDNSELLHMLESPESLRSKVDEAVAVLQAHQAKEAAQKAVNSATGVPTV
eIF4H FP inh – human eIF4H binding inhibitors, primary screen, translation initiation inhibitor project, biochemical, uHTS, fluorescence polarization | Eukaryotic translation initiation factor 4H (Homo sapiens), Q15056 | AID 2012, 2009 | inhibition, % at 35 µM | eIF4H fluorescence polarization binding assay | 290,000 compounds, 0.94% hits;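 active = 50% or more with normal probe brightness, or confirmed in later tests; about a fifth of its hits are not listed in these tables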;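 note: calls also rest on retests at 20 µM and on dose response follow-up; 0% = protein and probe with vehicle and 100% = probe without protein; strong numbers were not always called active; many hits fall short of the cut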
Rce1 inh – yeast Rce1p protease inhibitors, primary screen, biochemical, fluorescence, cell-free homogeneous; yeast membranes, quenched prenylated peptide cleavage fluorescence; calls only; 290,000 compounds, 0.27% hits; AID 2563, 2010;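 active = fall in fluorescence gain of 50% or more versus controls, with final raw signal at or below 3038400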;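 note: plate controls were neutral control wells for no effect and wells lacking membranes for full effect; tested at 10 µM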
CSC inhib – cancer stem cell viability inhibitors, primary screen, luminescence | 300,000 compounds, 1.1% hits | cancer stem cell-like cells viability | AID 2717, 2010 | inhibition, % at 7.5 µM;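 active = mean at 75% or more and at least half the replicates too; tested in HMLE shEcad cells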;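 note: 0% = median of negative and 100% = median of positive control wells; the first replicate is given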
HIV Env fusion – inhibitors of HIV-1 Env-driven cell-cell fusion, primary screen, HeLa-JRFL effector, CEM21 target cells, luciferase; inhibition, % at 12.3 µM; 360,000 compounds, 1.1% hits; AID 651610, 2012;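 active = mean replicate inhibition score of at least 50 and every replicate individually at or above 50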;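 note: 0% = plate neutral controls and 100% = maraviroc near 300 nM; one replicate is shown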
eIF4H FP inh retest – further read-out of eIF4H FP inh, marked with its call; inhibition, %; compound at 20 µM; confirmation average;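 mean of two retest wells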
PABP polyA inh retest – further read-out of PABP polyA inh, marked with its call; inhibition, %; compound at 20 µM; confirmation repeats;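 mean of two retest wells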
MT1-MMP act inh RFP – recorded beside MT1-MMP act inh, whose call it bears; RFP signal change, %; measured here: RFP expression control read;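 0 = vehicle wells; hits needed this value within 50% of zero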
An asterisk follows results filed as active; i = inactive; / = no result given; & = joins results of further samples.

SMILES	Yeast UUG start	MT1-MMP act inh	MT1-MMP act inh RFP	PABP polyA inh	eIF4H FP inh	Rce1 inh	CSC inhib	HIV Env fusion	others
CCCc1cc(=O)n2[nH]c(-c3ccc(OC)cc3)nc2n1	-10	3	4	15	-3	i	-1	/
O=C(Nc1ccc(F)cc1)c1cnccn1	-21	4	5	/	/	/	/	-1
O=C(c1ccco1)N1CCN(c2nc3ccsc3c(=O)s2)CC1	-6	-3	-2	-8	7	i	5	4
Cc1c(C(=O)N2CCN(c3ccccc3)CC2)oc2c1C(=O)CC(C)(C)C2	6	0	0	-6	-6	i	-1	1
CN(C)CCCNC(=O)/C(=N\O)c1ccccc1	-21	-1	2	-7	-1	i	-14	-67
CCOC(=O)N1CCN(C(=O)CCn2c(=O)[nH]c3ccsc3c2=O)CC1	-8	-1	8	-14	-7	i	-2	1
CCOc1ccc(-c2ccc(SCc3ccccn3)nn2)cc1	/	1	2	13	2	i	2	-11
CN1CCCN(C(=O)c2ccc(Cl)c(S(=O)(=O)N(C)c3ccccc3)c2)CC1	-10	4	1	6	-7	i	-7	/
CC1(C)CC(=O)c2sc(NC(=O)CN3CCOCC3)nc2C1	5	7	17	8	-1	i	3	-428
CCc1ccc(S(=O)(=O)Nc2ccc(-c3nc4cccnc4s3)cc2)s1	-17	2	3	2	-16	i	6	-61
COc1ccccc1CNc1nc(NCc2cnc(C)cn2)c2sccc2n1	4	-3	-4	/	/	/	/	-1
CC1CCC2(CC1)NC(=O)N(CC(=O)Nc1nc(-c3ccc(F)cc3)cs1)C2=O (stereo unspecified)	-13	1	5	-11	1	/	/	/
COc1ccc(CCN2CC(C(=O)O)CC2=O)cc1 (stereo unspecified)	-42	5	2	6	4	i	3	-3
O=[N+]([O-])c1ccc(N2CCOCC2)cc1NCc1ccccc1	-4	6	0	2	-4	i	-7	/
Cc1cc(C)cc(SCc2noc(C(=O)NCc3ccccc3)c2C(=O)NCc2ccccc2)c1	-15	-5	-2	5	-5	i	9	64*

Continued, starting with the last two of the part before.
SMILES	Yeast UUG start	MT1-MMP act inh	MT1-MMP act inh RFP	PABP polyA inh	eIF4H FP inh	Rce1 inh	CSC inhib	HIV Env fusion	others
O=[N+]([O-])c1ccc(N2CCOCC2)cc1NCc1ccccc1	-4	6	0	2	-4	i	-7	/
Cc1cc(C)cc(SCc2noc(C(=O)NCc3ccccc3)c2C(=O)NCc2ccccc2)c1	-15	-5	-2	5	-5	i	9	64*
COc1ccc(C(=O)/C(=C\N(C)C)n2nc(C)cc2C)cc1	/	-1	3	-10	10	/	-12	-16
CC(=O)Nc1cc(-c2nc3ccccc3o2)ccc1Cl	-10	2	2	5	0	i	-4	-31
COc1ccc(F)cc1S(=O)(=O)N1CCCCC1	/	-2	0	-9	-2	i	-4	-8
O=C1[C@H]2[C@@H](c3ccc(Cl)cc3)N3C(=O)N(c4cccc(F)c4)C(=O)[C@@]3(Cc3ccc(Cl)cc3)[C@H]2C(=O)N1C1CCCCC1	-16	0	-12	6	-5	i	16	/
Cc1cc(NC(=O)CSc2nnc(C3CC3)n2-c2ccccc2)no1	/	-1	0	1	1	i	/	6
Cc1cc(Cl)ccc1NC(=O)C1CCN(S(C)(=O)=O)CC1	-21	0	6	-5	-3	i	-6	-7
Cn1c(=O)[nH]c(=O)c2c1nc(NCc1ccco1)n2CCCc1ccccc1	0&1	-2	-1	-11	-2	i	/	/
COc1ccc(C(CC(=O)N2CCCCC2)c2c(OC)cc(OC)c3ccc(=O)oc23)cc1 (stereo unspecified)	-13	-1	-1	-5	6	i	-4	-16
CC1SC2(NC1=O)C1CC3CC(C1)CC2C3 (stereo unspecified)	/	1	2	58	12	i	3	0	eIF4H FP inh retest=-6;PABP polyA inh retest=5
Cc1cccc(NC(=O)C2CCCN(S(=O)(=O)c3cccc4nsnc34)C2)c1 (stereo unspecified)	-19	-2	-3	14	4	i	3	/
CC(=O)c1ccc(N2CCN(C(=O)Nc3ccc(C)cc3)CC2)cc1	-8	5	-4	-10	-4	i	1	-5
COc1cc(C(=O)N2CCN(C(=O)C3CC3)CC2)cc(OC)c1OC	-19	-2	0	-13	-3	i	-6	/
CCOc1c(CNCCN2CCOCC2)cccc1OC	-9	2	1	2	-7	i	-8	/
O=C(/C=C/c1ccc(Cl)cc1Cl)Nc1ccc(CN2CCOCC2)cc1	-29	-1	-23	26	-20	i	30	34
CCc1noc(C)c1C(=O)OCC(=O)Nc1ncc(Cl)cc1Cl	-12	-2	2	-6	0	i	7	12
Cc1cc(NC(=O)c2ccc(Cl)cc2)n(CCC#N)n1	-7	3	3	-4	-10	i	-8	-2
Cc1cccc(C(=O)N/N=C/c2coc3ccccc3c2=O)c1	0	-8	0	4	16	i	-5	/
CN1CCN(S(=O)(=O)c2cccc(C(=O)Nc3cc(Cl)ccc3N3CCOCC3)c2)CC1	15	0	-2	/	/	i	63	-8
COc1cccc2[nH]c(C(=O)NN)c(N)c12	/	-3	3	-1	-1	/	0	-8
Cc1nn(C)cc1CN(C)Cc1c(C(=O)N(C)Cc2ccccc2)nc2ccccn12	-19	1	6	-2	-5	/	4	-7
O=C(Nc1ccc2oc(=O)ccc2c1)c1cc2ccccc2o1	7	10	0	4	-3	i	10	/
Cc1ccc(CNC(=O)c2ccc(NC3=NC4CS(=O)(=O)CC4S3)cc2)cc1 (stereo unspecified)	-20	0	0	-3	-6	i	-11	-4
CN(C)S(=O)(=O)c1cccc(NC(=O)COC(=O)CCC(=O)c2ccc(F)cc2)c1	9	-1	3	-6	-3	i	-5	11
COc1cc(CNc2ccc(N3CCCC3)cc2)ccc1OCc1ccccc1	/	2	1	2	0	/	8	-12
Fc1ccc(NCc2ccccc2F)cc1Cl	-1	-8	2	1	-5	i	-3	/
C=CCC1CCCC(=O)N2CCCC12 (stereo unspecified)	16	2	4	/	/	/	/	-49
C#CC(C)(CC)NC(=O)c1cc2cccc(CC=C)c2oc1=O (stereo unspecified)	-15	-2	-4	2	5	i	22	2
Cc1ccc(C(=O)C2CCN(C(=O)c3ccc(C)cc3)CC2)cc1	-2	6	-3	2	-5	i	-12	26
CCc1ccccc1NC(=O)N[C@@H](C)C(=O)O	7	6	2	3	0	i	-3	-7
CCCCOc1ccc2c(C)cc(=O)oc2c1OCCCC	-4	-1	-5	10	-19	i	3	-18

Sorted by count of non-hydrogen atoms (falling): 13 of the compounds above.
SMILES	Yeast UUG start	MT1-MMP act inh	MT1-MMP act inh RFP	PABP polyA inh	eIF4H FP inh	Rce1 inh	CSC inhib	HIV Env fusion	others
CN1CCN(S(=O)(=O)c2cccc(C(=O)Nc3cc(Cl)ccc3N3CCOCC3)c2)CC1	15	0	-2	/	/	i	63	-8
Cc1nn(C)cc1CN(C)Cc1c(C(=O)N(C)Cc2ccccc2)nc2ccccn12	-19	1	6	-2	-5	/	4	-7
CN(C)S(=O)(=O)c1cccc(NC(=O)COC(=O)CCC(=O)c2ccc(F)cc2)c1	9	-1	3	-6	-3	i	-5	11
COc1cc(CNc2ccc(N3CCCC3)cc2)ccc1OCc1ccccc1	/	2	1	2	0	/	8	-12
Cc1ccc(CNC(=O)c2ccc(NC3=NC4CS(=O)(=O)CC4S3)cc2)cc1 (stereo unspecified)	-20	0	0	-3	-6	i	-11	-4
O=C(/C=C/c1ccc(Cl)cc1Cl)Nc1ccc(CN2CCOCC2)cc1	-29	-1	-23	26	-20	i	30	34
Cc1ccc(C(=O)C2CCN(C(=O)c3ccc(C)cc3)CC2)cc1	-2	6	-3	2	-5	i	-12	26
Cc1cccc(C(=O)N/N=C/c2coc3ccccc3c2=O)c1	0	-8	0	4	16	i	-5	/
CCCCOc1ccc2c(C)cc(=O)oc2c1OCCCC	-4	-1	-5	10	-19	i	3	-18
Cc1cc(NC(=O)c2ccc(Cl)cc2)n(CCC#N)n1	-7	3	3	-4	-10	i	-8	-2
CCc1ccccc1NC(=O)N[C@@H](C)C(=O)O	7	6	2	3	0	i	-3	-7
COc1cccc2[nH]c(C(=O)NN)c(N)c12	/	-3	3	-1	-1	/	0	-8
C=CCC1CCCC(=O)N2CCCC12 (stereo unspecified)	16	2	4	/	/	/	/	-49

Remaining list, next part.
SMILES	Yeast UUG start	MT1-MMP act inh	MT1-MMP act inh RFP	PABP polyA inh	eIF4H FP inh	Rce1 inh	CSC inhib	HIV Env fusion	others
Cc1c(NC(=O)COc2ccc3ccccc3c2)c(=O)n(-c2ccccc2)n1C	/	/	/	2	-9	i	/	9
CN(Cc1ccccc1)C(=O)c1ccccc1C(=O)O	11	0	-1	47	-5	i	-3	-16
C[C@H]1NC(=O)[C@@]2(C)[C@H](c3ccccc3)[C@H]3COc4ccccc4[C@@H]3N2C1=O	-7	2	4	/	/	/	-12	92*
Cc1ccc(C)c(/C(O)=C2\C(=O)C(=O)N(CCCN3CCOCC3)C2c2cccnc2)c1 (stereo unspecified)	/	0	4	12	5	i	/	/
COc1ccc(Oc2nccc(-c3ccc(F)cc3)c2C#N)cc1	4	3	2	-1	0	i	10	/
CC1CN(CCCCSc2ccc(Cl)cc2)CC(C)O1 (stereo unspecified)	-26	2	4	20	8	i	/	6
CCC(Sc1nccn1C)C(=O)Nc1nnc(C)s1 (stereo unspecified)	-26	0	2	7	-2	i	-6	-2
O=C(Cc1ccc(S(=O)(=O)N2CCOCC2)s1)Nc1cc(C(F)(F)F)ccc1N1CCCC1	-2	-2	-8	/	/	i	-13	17
Cc1cc(C)c(C(=O)c2cccs2)c(C)c1	-16	4	3	/	/	/	/	-17
COc1ccc(N2C(=O)CN=C2Nc2cccc(C)c2C)cc1OC	-7	1	1	-5	2	i	-1	/
Cc1c(C(=O)c2ccc(N(C)C)cc2)c2ccccn2c1CCC#N	3	-2	1	-3	4	i	-1	3
O=C1CCCc2c1nc(-c1ccc(F)cc1)n2O	/	0	1	1	5	i	-8	-8
O=C(c1ccccc1)N1CCN(C(=O)c2ccccc2)C1c1ccccc1	10	1	8	3	4	i	4	/
Cc1c(Cl)cn2c(=O)cc(CN(C)Cc3nc4ccccc4c(=O)[nH]3)nc2c1Cl	/	/	/	7	9	i	-13	/
COc1cccc(-c2cnc3c(NC=O)cc(-c4cc(C)c(O)c(C)c4)cn23)c1	-4	8	1	/	/	/	/	-226
CCOC(=O)c1cnc2c(C(=O)OC)cccc2c1NCc1cccnc1	/	-5	-2	-13	-8	i	3	3
COc1ccc(/C=C/C(=O)OCC(=O)N2c3ccccc3CC2C)cc1 (stereo unspecified)	4	3	4	/	/	/	/	-5
CN(Cc1ccccc1)S(=O)(=O)c1ccc(Cl)c(C(=O)NCCCN2CCCC2=O)c1	0	0	-2	/	/	/	/	1
CN(C)c1ccc(/C=N/NC(=O)CNC(=O)c2ccncc2)cc1	-19	0	1	-3	-6	i	-10	5
CC(C)N1CCc2c(sc(NC(=O)c3ccc(S(=O)(=O)N(C)CC4CCCO4)cc3)c2C(N)=O)C1 (stereo unspecified)	12	-17	5	-16	-5	i	2	/
CC(=O)Nc1ccc(OCC(=O)N2CCC(Cc3ccccc3)CC2)cc1	/	3	-4	-8	-6	i	56	5
CCOC(=O)C1CCN(Cc2ccc(F)cc2F)CC1	-3	1	3	-7	2	i	7	/
CC(=O)Nc1ccc(NC(=O)CN(C)S(=O)(=O)c2ccc3nc(C)sc3c2)cc1	/	-1	1	3	8	i	-11	-8
